# TRPML1 agonist – activates the human TRPML1 channel | Q9GZU1 | TRPML1-expressing cells, Ca2+ dye fluorescence, FDSS; host cell line not named in the record; reference of the full effect not given here | activation, % (no concentration beside the values) | hit rate 0.12% among 410,000 | AID 624414; in the data active = activation above about 50%; inconclusive = about 30% to 50%; inactive = below about 30%; also: 0% is about no effect; the text of the record puts the active cut at 80%
# Target sequence (Q9GZU1 whole entry, looked up): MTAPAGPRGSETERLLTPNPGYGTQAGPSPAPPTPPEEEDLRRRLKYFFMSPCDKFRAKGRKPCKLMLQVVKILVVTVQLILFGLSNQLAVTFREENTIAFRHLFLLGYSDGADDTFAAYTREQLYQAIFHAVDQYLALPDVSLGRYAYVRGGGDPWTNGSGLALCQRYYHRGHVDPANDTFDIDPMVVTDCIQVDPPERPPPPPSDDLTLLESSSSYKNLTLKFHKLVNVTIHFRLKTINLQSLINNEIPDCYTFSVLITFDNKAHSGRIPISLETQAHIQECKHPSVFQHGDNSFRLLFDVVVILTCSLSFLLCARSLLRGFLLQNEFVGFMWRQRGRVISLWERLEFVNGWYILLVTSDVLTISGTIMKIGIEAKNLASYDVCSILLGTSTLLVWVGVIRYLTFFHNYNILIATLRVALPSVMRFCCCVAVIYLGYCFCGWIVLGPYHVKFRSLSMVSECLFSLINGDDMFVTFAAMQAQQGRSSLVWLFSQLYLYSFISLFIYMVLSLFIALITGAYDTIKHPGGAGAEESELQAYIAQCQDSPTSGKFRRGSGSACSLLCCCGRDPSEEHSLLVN
#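 Calcium fluorescence on an FDSS kinetic reader gave the read-out. Tet-induced TRPML1-DL cells were plated overnight, dye-loaded (Ca8 with quencher, 45-90 min, room temperature, dark), then read 110 s after compound addition, and again 110 s after 4uM final 54-4 (EC80).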
# D2 potentiator – potentiates the human D2 dopamine receptor allosterically. P14416. DiscoveRx D2 beta-arrestin cells, luminescence, 90 min; 100% = 57 uM dopamine signal. potentiation, % (test concentration not listed). hit rate 0.23% among 360,000. AID 624464; active = potentiation of 50% or more; inconclusive = 30% to 50%; inactive = 30% or less;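 also: compound concentration not given in the record; tested on top of an EC20 dose of dopamine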
# Target sequence (P14416 whole entry, looked up): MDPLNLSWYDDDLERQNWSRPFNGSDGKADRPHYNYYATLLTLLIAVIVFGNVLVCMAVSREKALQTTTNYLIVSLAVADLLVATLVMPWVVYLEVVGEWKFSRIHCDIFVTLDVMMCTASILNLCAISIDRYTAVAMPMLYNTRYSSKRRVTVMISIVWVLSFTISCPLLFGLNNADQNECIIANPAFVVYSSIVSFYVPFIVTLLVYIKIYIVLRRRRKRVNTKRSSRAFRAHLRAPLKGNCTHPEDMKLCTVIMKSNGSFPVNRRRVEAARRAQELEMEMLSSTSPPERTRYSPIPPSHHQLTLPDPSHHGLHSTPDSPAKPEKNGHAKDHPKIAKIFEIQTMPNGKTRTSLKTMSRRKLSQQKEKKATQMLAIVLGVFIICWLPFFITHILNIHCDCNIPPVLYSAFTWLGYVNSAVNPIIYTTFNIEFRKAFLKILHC
#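 PathHunter D2 cells, attached overnight at 37 deg C, received compound in DMSO plus dopamine at EC20 (50 nM final) for 90 min at 37 deg C. Beta-arrestin recruitment was read as luminescence after 1 h with detection reagent at ambient temperature.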
# PINK1 modulator – PINK1 expression modulation; PINK1 immunofluorescence, high-content cytometry, 24 h; Potency, µM (series often up to 76.6 µM), inactives show at the top dose activation (PINK1 increase), actives largely listed as activators; hit rate 0.2% among 410,000; AID 624263; active = well fitted activation curve with a large enough effect; inconclusive = small, poorly fitted or top-dose-only effect; inactive = flat fitted curve, though single readings scatter; cell line not stated here;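 also: potency is read from the fitted curve at half-maximal effect; % of control where 0% means no effect; nearly all actives have a fitted effect of over 65% in size; a mitochondrial uncoupler was the plate control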
#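 Decision-based qHTS: stable cells, 24 h exposure to five compound concentrations, CCCP as control. Fixed cells stained for PINK1 plus nuclear, mitochondrial and cell markers, cytometer read.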
# CtBP-E1A blk – CtBP/E1A binding inhibition; activity change, % (no concentration beside the values); hit rate 0.49% among 340,000; AlphaScreen GST-E1A/His-CtBP binding, 1536-well; active compounds read low; control for the full effect not named in the record; in the data active means activity change below about -65%; inconclusive means about -30% to -65%; inactive means above about -30%; also: % is scaled to controls: 0 for no effect and ±100 for the full control effect
#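 In 5 uL wells, 23 nL compound meets equimolar GST-E1A and His-CtBP (5X stock 125 nM each) for 2 h, 37 °C. Beads (5X, 50 ug/mL) then 1 h, 37 °C, dark.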
# D2 agonist – activates the human D2 dopamine receptor; activation, % (test concentration not listed); hit rate 0.084% among 360,000; DiscoveRx PathHunter D2 beta-arrestin, luminescence, 90 min; 100% = 57 uM dopamine signal; in the data active = activation above about 40%; inconclusive = about 15% to 40%; inactive = below about 15%; also: compound concentration not given in the record; the text of the record calls up to 30% inactive
#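 Agonist mode: compounds alone added to overnight-plated D2 PathHunter cells for 90 min at 37 C, with 57 uM final dopamine (EC100) defining full response. Beta-arrestin recruitment detected by chemiluminescent reagent, read after 1 h at ambient temperature.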
# Six1-Eya2 inh – inhibitors of human Six1/Eya2 interaction | Q15475+O00167 | AlphaScreen GST-Six1/His-Eya2 binding, biochemical; active compounds read low; control for the full effect not named in the record | activity change, % (no concentration beside the values) | hit rate 0.56% among 360,000; in the data active = activity change below about -65%; inconclusive = about -30% to -65%; inactive = above about -30%; also: % is scaled to controls: 0 for no effect and ±100 for the full control effect
#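 GST-Six1 + His-Eya2 (5X stock: 250/500 nM); Tris pH 8.0, 300 mM NaCl, 0.05% BSA, 0.02% Tween 20; GSH donor/Ni acceptor beads; 1 h 37 °C dark; AlphaScreen readout.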
# The depositor's hits bear a star; u = inconclusive; x = no result given; & = joins results of further samples; [ ] = another dose, or the depositor's remark.
SMILES,TRPML1 agonist,D2 potentiator,PINK1 modulator,CtBP-E1A blk,D2 agonist,Six1-Eya2 inh
CCOc1ccccc1N1CCN(S(=O)(=O)CC)CC1,-0.2,-33.2,0.9%,-1.1,-0.4,10.0
CC[n+]1c(/C=C2/C=C(C)CC(C)C2)sc2ccccc21 (configuration not stated),2.3,-5.3,u,1.5,-7.1,3.4
CC(C)(C)OC(=O)CNC(=O)c1[nH]cnc1C(=O)Nc1ccc(CNC(=O)OC(C)(C)C)cc1,2.8,u,-1.0%,x,u,-0.1
CCN1C(=O)c2ccccc2Sc2ccc(C(=O)NCCCN(CC(C)C)CC(C)C)cc21,-1.3&-0.2,-11.2,-0.3%&1.6%,-1.0,-2.2,11.8
Cc1cc(CNC(=O)Cn2nc(C)c([N+](=O)[O-])c2C)c2ccccc2n1,-0.5,-6.4,1.0%,1.8,-2.1,-0.3
Cc1cc(C)cc(C(=O)NCC(=O)OCC(=O)N2CCN(S(=O)(=O)c3ccc4ccccc4c3)CC2)c1,2.3,-15.5,-1.3%,0.3,-1.6,3.9
COc1ccc(CC(=O)N2N=C(C)CC2(O)c2cccnc2)cc1 (configuration not stated),-0.2,-13.1,0.3%,6.5,-2.4,3.4
C#CCOCCOCCOCCNc1nc(N2CCN(C(=O)C(Cc3cc4ccccc4[nH]3)n3cc(C(N)Cc4ccc(O)cc4)nn3)CC2)nc(N2CCN(C(=O)C(Cc3cc4ccccc4[nH]3)n3cc(C(N)Cc4ccc(O)cc4)nn3)CC2)n1 (configuration not stated),1.4,-13.0,3.8%,-17.6,-2.8,-14.3
CC(=O)NC(Cc1ccccc1C)C(=O)NC1CCN(C(=O)c2cccc(C)c2)CC1 (configuration not stated),0.1,-11.5,-0.8%,1.8,-0.9,4.3
COc1ccccc1N1CCN(C(=O)Cn2cnc3c2c(=O)n(C)c(=O)n3C)CC1,-0.7,-5.7,0.5%,-0.2,-0.7,2.6
CSCC[C@H](NC(=O)c1cccc(S(=O)(=O)N2CCCCC2)c1)c1nc2ccccc2[nH]1,3.2,-12.6,-1.1%,-12.5,-3.4,-14.7
O=c1[nH]c2ccc(NC(=S)Nc3ccccc3)cc2[nH]1,-0.7,-8.6,8.2%,0.0,-2.7,1.1
S=C(NCc1cccs1)Nc1cccc2ccccc12,3.3,-4.0,-0.7%,4.1,1.1,-3.3
Cc1ccccc1-c1nn2c(-c3ccccc3)nnc2s1,-0.2,-19.3,-0.6%,-7.8,-4.1,-7.7
CC(=O)N1c2ccc(S(=O)(=O)N3CCC(C(=O)Nc4cc(C)cc(C)c4)CC3)cc2CC1C (configuration not stated),1.6,-30.9,1.3%,-6.0,-1.0,-1.1
CCc1cc(=O)oc2cc(OCC(=O)NCCCn3ccnc3)ccc12,-0.2,-9.6,0.4%,x,6.2,-14.5
CCS(=O)(=O)N1CCC(C(=O)Oc2ccccc2OC)CC1,x,17.8,0.5%,x,2.6,0.3
CC1=C(C(=O)N(C)C)CC(CC(=O)NCCCCc2ccccc2)C(=O)N1Cc1ccc(C(C)(C)C)cc1 (configuration not stated),-0.4,-2.2,12.9%,0.2,-11.1,-4.3
CCOc1ccccc1N(CC(=O)NCCSc1ccccc1)S(C)(=O)=O,-0.4,-4.7,-0.5%,7.6,-0.3,-2.5
O=C(c1cccc2ccccc12)N1CCN(c2ccccc2F)CC1,0.8,-13.2,-2.3%,6.7,-2.0,-6.7
CC(C)CCN1C(=O)c2ccc(C(=O)Nc3ccc(Br)cc3C(=O)O)cc2C1=O,-0.3,-15.6,2.0%,x,0.3,-0.4
CC(C)(O)C#Cc1ccc(CN2CCC(n3nccc3NC(=O)C3CC3)CC2)cc1,-0.3,-13.7,-0.5%,1.1,2.4,8.1
Cc1ccc(-c2nnn(CC(=O)N(Cc3cccs3)C(C(=O)NC3CCCC3)c3ccncc3)n2)cc1 (configuration not stated),0.9,-8.3,-1.6%[38.3 µM],-7.4,0.3,-4.9
Cc1cc(C(=O)N/N=C\c2cc(C(C)(C)C)ccc2O)n[nH]1,1.4,-11.7,3.5%,-67.9*,-6.2,u
CCOc1ccc(CCNC(=O)COC(=O)c2cccc(S(=O)(=O)N3CCCCC3)c2)cc1OCC,0.8,-15.0,1.0%,5.3,-1.9,3.1
COc1cccc(NS(=O)(=O)c2ccc(S(=O)(=O)N3CCCC3)cc2)c1,-0.1,-2.4,1.0%,x,-1.9,17.2
NS(=O)(=O)c1ccc(NC(=S)NC2CCCC2)cc1,-0.4,-14.5,3.2%,5.7,-1.1,-6.6
CC(C)c1csc(CN2CCN(Cc3ccccc3)C(CCO)C2)n1 (configuration not stated),-0.4,-7.3,-1.4%,5.7,0.2,-1.5
CCN(CC)CCN(C(=O)c1ccc([N+](=O)[O-])cc1)c1nc2ccc(OC)cc2s1,-0.5,-11.0,18.1%,4.9,-1.1,9.7
Cc1ccc(S(=O)(=O)N/N=C/c2cn(C)nc2C)cc1,0.6,-11.7,-2.0%,2.7,-0.4,8.7
COc1ccc(NC(=O)O/N=C/c2ccncc2)cc1,0.8,-4.4,1.3%,-7.8,3.8,-7.0
COc1ccc(OC)c2nc(-c3ccc4c(c3)OCO4)ccc12,0.6,4.1,1.8%,12.3,-0.1,0.1
CCN(CC)S(=O)(=O)c1ccc(N2CCCCC2)c(NC(=O)c2ccncc2)c1,3.1,-4.4,-0.3%,12.5,1.5,0.4
CC(C)CC(c1nnnn1C1CCCCC1)N1CCN(C(=O)c2ccco2)CC1 (configuration not stated),-0.1,-1.8,0.8%,0.0,0.7,3.3
CCN(CC)C(=O)CSc1nc2ccccc2c(=O)n1CCC(=O)NCc1ccc(F)cc1,0.6,-16.3,x,1.7,0.0,2.0
Cc1cc(=O)oc2cc(OCC(=O)Nc3nnc(C4CC4)s3)ccc12,0.1,-3.6,-0.9%,-5.0,-5.0,0.0
Cc1cccc(OCCOC(=O)C2CCN(S(=O)(=O)c3ccc(C)c(C)c3)CC2)c1,5.2,-5.1,-0.1%,13.4,-1.9,22.2
Cc1ccc(C(=O)OC2CCOC2=O)cc1NC(=O)c1ccco1 (configuration not stated),-0.1,2.2,1.3%,-2.8,-0.5,2.1
CC(C)(C)OC(=O)C[C@H]1C/C=C\C[C@@H](CC(=O)NCCO)C(=O)N[C@H](Cc2ccccc2)COC1=O,0.2,x,0.7%,1.9,1.0,0.1
Cc1ccc(CNC(=O)c2cc3c(s2)CN(Cc2ccccc2)C3)cc1,-0.3,-14.4,12.4%,-1.6,-0.8,0.6
CCC(=O)N1CCc2cc(S(=O)(=O)NC(C(=O)NCc3ccc(C)cc3)C(C)C)ccc21 (configuration not stated),0.1,-0.8,13.4%,-0.4,-1.0,4.5
Cc1ccc(S(=O)(=O)N2[C@H](c3ccccc3)CC(=O)[C@@H]3CN(S(=O)(=O)c4ccccc4C)[C@H](c4ccccc4)C[C@@H]32)cc1,2.4,-2.6,-0.2%,6.0,-1.3,1.7
O=C(O)c1ccccc1-c1nc2ccccc2n1-c1ccccc1,0.1,7.5,0.6%,-1.2,-2.3,7.3
CC(=O)Nc1ccc(NC(=O)CSc2nccn2Cc2ccco2)cc1,0.0,-6.8,4.2%,7.3,-4.3,0.2
Cc1ccc(NC(=O)c2cc(N3C(=O)C4CCCCC4C3=O)ccc2N2CCOCC2)cc1 (configuration not stated),1.3,-11.4,1.1%,2.8,4.6,-0.4
CCc1nc2c(OCc3ccc(C#N)cc3)cccn2c1N(C)C(=O)C(C)C,-0.6,-7.3,0.9%,-2.0,-4.0,4.9
COCCN1C(=O)/C(=C2/C(=O)N(CC(=O)Nc3ccccc3Cl)c3ccccc32)SC1=S,1.0,-8.6,-1.9%,-11.6,-1.7,-0.7
Cc1nnsc1C(=O)N/N=C/c1ccccc1Cl,-0.5,-0.8,1.4%,3.6,-2.2,22.2

# Of the compounds above, these have an aryl thioether with sulfur outside any ring:
SMILES,TRPML1 agonist,D2 potentiator,PINK1 modulator,CtBP-E1A blk,D2 agonist,Six1-Eya2 inh
CCOc1ccccc1N(CC(=O)NCCSc1ccccc1)S(C)(=O)=O,-0.4,-4.7,-0.5%,7.6,-0.3,-2.5
CCN(CC)C(=O)CSc1nc2ccccc2c(=O)n1CCC(=O)NCc1ccc(F)cc1,0.6,-16.3,x,1.7,0.0,2.0
CC(=O)Nc1ccc(NC(=O)CSc2nccn2Cc2ccco2)cc1,0.0,-6.8,4.2%,7.3,-4.3,0.2

# Additional structures
SMILES,TRPML1 agonist,D2 potentiator,PINK1 modulator,CtBP-E1A blk,D2 agonist,Six1-Eya2 inh
COc1ccc(C(C(=O)NC(C)(C)C)N(Cc2cccs2)C(=O)CCC(=O)Nc2cc(C)on2)cc1 (configuration not stated),0.2,-7.6,0.9%,6.6,0.2,-1.4
O=C(c1ccc(F)cc1)C1CCN(C(=O)c2ccc(Cl)cc2)CC1,-0.3,-61.0,-0.6%,x,6.3,-0.7
COc1cccc(C(O)c2nc(-c3cccc(C#N)c3)cs2)c1 (configuration not stated),-0.3,-4.6,0.0%,6.2,-1.7,-5.7
CC1=NN(c2ccccc2C(=O)O)C(=O)C1N=Nc1ccccc1 (configuration not stated),1.1,1.5,-2.1%,x,1.9,-4.9
CCCn1c(N)c(N(CCOC)C(=O)c2cccc(C(F)(F)F)c2)c(=O)[nH]c1=O,0.9,-3.6,2.1%,-22.4,3.2,1.5
O=C1CCCN1CCC(=O)N1CCCC(Nc2ccc(F)cc2)C1 (configuration not stated),-0.2,-23.5,-1.7%,6.5,-4.3,6.7
C[C@@H](C(=O)Nc1nc(-c2ccccn2)cs1)N1C(=O)C2CCCCC2C1=O (some centres not stated),-0.4,-2.4,0.0%,-89.6*,3.8,-90.4*
COC(=O)c1ccccc1S(=O)(=O)N1CCC(C(=O)OC(C)C(=O)Nc2ccccc2OC)CC1 (configuration not stated),1.2,4.4,1.8%,0.0,0.9,15.6
CNc1cccc(-c2cccc(O)c2)n1,-0.6,-11.6,-0.5%,0.0,-2.2,-2.1
N[C@H](CSCc1ccccc1)C(=O)Nc1ccc([N+](=O)[O-])cc1,1.3,-2.9,1.9%,-8.1,-2.6,-7.7
COc1ccc(C)c(-n2c(N)cc(=O)n(Cc3ccccc3)c2=O)c1,0.6,-6.0,-1.5%,x,-4.8,9.9
O=C(NNC(=O)c1ccccc1F)c1ccc(-c2ccc(Cl)cc2)o1,0.2,-2.2,3.0%,-3.3,-5.2,10.1
CCN(CC)C(=S)NC(=O)c1cccnc1,0.9,-5.2,3.2%,2.0,-0.3,4.2
Cc1ccc(OCC(=O)NC2CCS(=O)(=O)C2)c(C)c1 (configuration not stated),-0.9,7.6,0.0%,5.5,0.2,7.3
COc1ccc(N(C)S(=O)(=O)c2cccc(C(=O)N(C)Cc3ccc(C)o3)c2)cc1,2.5,1.3,-0.4%,-5.8,2.6,-12.5
N=c1c(C(=O)NCc2ccco2)cc2c(=O)n3ccccc3nc2n1C1CCCC1,2.9,-1.4,-1.2%,-13.4,-1.6,u
Cc1cc(C)cc(NC(=O)C2C3C=CC(O3)C2C(=O)O)c1 (configuration not stated),-0.6,-2.7,0.1%,3.3,-1.7,-1.7
O=S(=O)(NCc1ccc2c(c1)OCO2)c1ccc(F)c(F)c1,1.0,-1.5,-0.7%,-5.0,2.5,9.2
NC(=O)c1cc(Br)cc(C2CCCCC2)c1O,1.6,2.8,u,-1.0,-0.2,9.3
N#Cc1cc2ccncc2c2ccccc12,-0.2,-13.4,-0.9%,-1.5,-4.5,-13.6
